Bioassay records: PubChem BioAssay, Southern Research Institute
total CFTR: total CFTR protein upregulators, primary screen, cell-based, HeLa F508del-CFTR, immunofluorescence, viability (AID 1224863); HeLa F508del-CFTR, immunofluorescence total CFTR, 24 h; by the record results were divided by relative cell number; some inactives read as strong as hits; calls, or highest fold increase where a dose series was run; 10,000 compounds, 0.1% hits; in the data nearly all actives have a first-pass fold increase above 1.5; a few of its hits are not listed in these tables;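 further: total CFTR protein by anti-CFTR immunofluorescence in fixed cells; first pass at 25 µM or 10 µg/mL by library and series up to twice that; 1 = untreated cells; first-pass hits also needed half or more of the cells alive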
total CFTR fold 25 µM: further read-out of total CFTR, marked with its call; fold increase; measured here: primary screen single dose 25 uM; library dosed in µM
total CFTR fold 10 ug/mL: further read-out of total CFTR, marked with its call; fold increase; measured here: primary screen 10 ug/mL
total CFTR viability 25 µM: also measured in total CFTR; calls as there; viability, %; measured here: primary viability 25 uM; library dosed in µM;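 0% = killed and 100% = untreated cells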
total CFTR viability 10 ug/mL: also measured in total CFTR; calls as there; viability, %; measured here: primary viability 10 ug/mL;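 0% = killed and 100% = untreated cells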
An asterisk follows results filed as active; i = inactive; . = no result given; & = joins results of further samples. The list is partial (hit frequency here may not be typical).

SMILES	total CFTR	total CFTR fold 10 ug/mL	total CFTR viability 10 ug/mL	others
Nc1nc2c(ncn2CCC(CO)CO)c(=O)[nH]1	i	.	.	total CFTR fold 25 µM=0.99&1.02;total CFTR viability 25 µM=89.0&98.0
N#Cc1ncn(Cc2nc(-c3cccc([N+](=O)[O-])c3)no2)n1	i	1.15	102.0
c1cc2c(cc1-c1[nH]ncc1CNCC1CCCOC1)OCCO2 (stereo unspecified)	i	1.21	92.0
O=C(Nc1cc2c(cc1Cl)OCCO2)Nc1cc2c(cc1Cl)OCCO2	i	0.84	82.0
C1COC2(CCN(Cc3nnnn3C3CC3)CC2)O1	i	0.97	92.0
CC1OC1P(=O)(O)O (stereo unspecified)	i	.	.	total CFTR fold 25 µM=1.13;total CFTR viability 25 µM=103.0
Cc1sc2ncnc(SCc3nccn3C(F)F)c2c1C	i	1.02	96.0
CC(C)(C)C(=O)CN1C(=O)NC(C)(c2ccc(Cl)cc2)C1=O (stereo unspecified)	i	1	118.0
Fc1ccccc1OCCSc1nc2cc(C(F)(F)F)ccc2n1Cc1ccccc1	i	1.01	106.0
N#Cc1cccnc1Sc1nc2ccccc2s1	i	0.87	89.0
c1ccc(SCCNc2ccc3nnnn3n2)cc1	i	1.09	105.0
Cn1c(-c2c(N)n(Cc3cccnc3)c3nc(C#N)c(C#N)nc23)nc2ccccc21	1.77	4.43	92.0
CC1(C2CC2)NC(=O)N(CC(=O)NCC2(N3CCOCC3)CCCCC2)C1=O (stereo unspecified)	i	1.08	93.0
c1ccc(C2CN3CCSC3=N2)cc1 (stereo unspecified)	i	.	.	total CFTR fold 25 µM=1.17;total CFTR viability 25 µM=95.0
CCOC(=O)C1=C(C)NC(C)=C(C(=O)OC)C1c1cccc(Cl)c1Cl (stereo unspecified)	i	.	.	total CFTR fold 25 µM=0.85&0.86;total CFTR viability 25 µM=84.0&76.0
CC(CNc1ccc2nnnn2n1)(c1ccccc1)c1ccccc1	i	1.01	93.0
CC(NC(=O)CCc1nc2sc3c(c2c(=O)[nH]1)CCCC3)C1CC1 (stereo unspecified)	i	1.04	92.0
CCCc1cc(=O)[nH]c(SCCCCN2C(=O)c3ccccc3C2=O)n1	i	1.06	113.0
COc1cc2c(N3CCN(C(=O)Nc4ccc(OC(C)C)cc4)CC3)ncnc2cc1OCCCN1CCCCC1	i	.	.	total CFTR fold 25 µM=1.03;total CFTR viability 25 µM=89.0
O=C1C(=O)N(CN2CCc3sccc3C2)C(=O)N1Cc1ccccc1	i	1.01	92.0
CC(C)(Oc1ccc(CCNC(=O)c2ccc(Cl)cc2)cc1)C(=O)O	i	.	.	total CFTR fold 25 µM=1.06&1.09;total CFTR viability 25 µM=104.0&85.0
CSc1nc2nc(C)c(CC(=O)NC3CCN(C(C)(C)C)CC3)c(C)n2n1	i	0.93	98.0
CS(=O)(=O)c1ccc(S(=O)(=O)Nc2ccc(I)cc2)cc1	i	0.87	92.0
O=C1CNC(=O)N1CC(O)COc1c(Cl)cccc1Cl (stereo unspecified)	i	0.99	90.0
C=CCOc1ccc(/C(O)=C2/C(=O)C(=O)N(CCCN(C)C)C2c2ccc(Cl)c(Cl)c2)cc1 (stereo unspecified)	i	1.15	92.0
O[N+]1=CC=CCC1=S.On1ccccc1=S.[Zn]	i	.	.	total CFTR fold 25 µM=0.57;total CFTR viability 25 µM=29.0
CS(=O)(=O)Nc1ccc(Cl)c(S(=O)(=O)Nc2ccc(I)cc2)c1	i	1.01	96.0
c1ccc(-c2cc(CSc3nnc(-c4ccco4)o3)no2)cc1	i	1.01	100.0
CCc1c(C)[nH]c2c1C(=O)C(CN1CCOCC1)CC2 (stereo unspecified)	i	.	.	total CFTR fold 25 µM=1.07;total CFTR viability 25 µM=94.0
O=C1CC2(CCCC2)CC(=O)N1CCCCN1CCN(c2ncccn2)CC1	i	.	.	total CFTR fold 25 µM=1.1&1.03;total CFTR viability 25 µM=105.0&100.0
Cc1cc(-c2csc(NC(=O)CN3CSCC3=O)n2)c(C)s1	i	1.04	94.0
O=C(NCCCC(=O)N1CCN(c2nccs2)CC1)NC1CCCCC1	i	1.13	88.0
O=C1CSc2ccc(C(=O)OCc3cc(-c4ccccc4)on3)cc2N1	i	0.87	84.0
CN1CCN2c3ccccc3Cc3ccccc3C2C1 (stereo unspecified)	i	.	.	total CFTR fold 25 µM=1.12&0.86&1.05;total CFTR viability 25 µM=95.0&92.0&107.0
O=S(=O)(c1cccs1)N1CCN(Cc2ccsc2)CC1	i	0.95	56.0
O=C1CCc2cc(S(=O)(=O)N3CCN(c4nccs4)CC3)ccc2N1	i	1.04	89.0
CN1CC(=O)N=C1N	i	.	.	total CFTR fold 25 µM=1.02;total CFTR viability 25 µM=99.0
OC1CCN(c2cc(C(F)(F)F)nc3ccccc23)CC1	i	1.04	101.0
O=C(c1ccc(Br)cc1)c1cc2cc(Cl)ccc2o1	i	0.86	92.0
CCC[C@@H]1C[C@@H](C(=O)N[C@@H]([C@H]2O[C@H](SC)[C@H](O)[C@@H](O)[C@@H]2O)[C@@H](C)O)N(C)C1	i	.	.	total CFTR fold 25 µM=1.07;total CFTR viability 25 µM=92.0
Nc1nc(COC(=O)c2cc(Cl)c3c(c2)OCCO3)nc2ccccc12	i	1.04	82.0
CC1(C(=O)Nc2cccc(N3CCNC3=O)c2)CC1(Cl)Cl (stereo unspecified)	i	0.93	94.0
c1cc(CSc2nnnn2C2CC2)ccc1CSc1nnnn1C1CC1	i	0.98	89.0
O=C1C(=O)N(CN2CCc3sccc3C2)c2ccccc21	i	0.95	100.0
O=c1c2ccsc2ncn1CCS(=O)(=O)NCc1ccco1	i	0.94	85.0
NC(=O)NCC1CCNCC1	i	1.26	93.0
CCCCn1c(=O)[nH]c(=O)c2c1nc(CSc1ncnc3sc(CC)cc13)n2CCC	i	1.03	100.0
COC(=O)CN(CN1C(=O)c2cc(Cl)c(Cl)cc2C1=O)C1CCS(=O)(=O)C1 (stereo unspecified)	i	1	94.0
COc1ccc(C(=O)c2ccc(C)cc2)c(O)c1	i	.	.	total CFTR fold 25 µM=0.92;total CFTR viability 25 µM=92.0
CCCOc1ccc(OCCSc2nc(C3CC3)nc3c2c(=O)[nH]c(=O)n3C2CC2)cc1	i	0.96	88.0
COc1cccc2c1C(=O)c1c(O)c3c(c(O)c1C2=O)C[C@@](O)(C(=O)CO)C[C@@H]3O[C@H]1C[C@H](N)[C@@H](O)[C@H](C)O1	i	.	.	total CFTR fold 25 µM=0.6&0.59;total CFTR viability 25 µM=48.0&38.0
O=[N+]([O-])c1ccccc1CSc1ccc(C(F)(F)F)cn1	i	0.93	86.0
Cc1ccccc1CCNc1ccc2nnnn2n1	i	0.99	89.0
O=C(c1cccs1)N1CCN(CN2C(=O)NC3(CCCCC3)C2=O)CC1	i	1.01	92.0
Cc1cc(-c2ncc[nH]2)c(=O)[nH]n1	i	1.04	93.0
CC(NS(=O)(=O)c1ccc2c(c1)OCCO2)c1ccc2c(c1)OCO2 (stereo unspecified)	i	0.98	89.0
C=C(C)Cn1cnc2ccc([N+](=O)[O-])cc2c1=O	i	0.95	89.0
COc1c2ccoc2cc2oc(=O)ccc12	i	.	.	total CFTR fold 25 µM=1.01;total CFTR viability 25 µM=93.0
CN(C)S(=O)(=O)NCc1cn(-c2ccccc2)nc1-c1ccccc1	i	0.9	90.0
O=C(O)Cc1ccc(-c2ccccc2)cc1	i	.	.	total CFTR fold 25 µM=1.06;total CFTR viability 25 µM=116.0

Quoted at random: 3 entries already listed
SMILES	total CFTR	total CFTR fold 10 ug/mL	total CFTR viability 10 ug/mL	others
CN(C)S(=O)(=O)NCc1cn(-c2ccccc2)nc1-c1ccccc1	i	0.9	90.0
Cc1cc(-c2ncc[nH]2)c(=O)[nH]n1	i	1.04	93.0
CCCOc1ccc(OCCSc2nc(C3CC3)nc3c2c(=O)[nH]c(=O)n3C2CC2)cc1	i	0.96	88.0

Ordered by molecular weight (high to low): three of the compounds above
SMILES	total CFTR	total CFTR fold 10 ug/mL	total CFTR viability 10 ug/mL	others
O=C(Nc1cc2c(cc1Cl)OCCO2)Nc1cc2c(cc1Cl)OCCO2	i	0.84	82.0
O=S(=O)(c1cccs1)N1CCN(Cc2ccsc2)CC1	i	0.95	56.0
N#Cc1cccnc1Sc1nc2ccccc2s1	i	0.87	89.0

(further entries)
SMILES	total CFTR	total CFTR fold 10 ug/mL	total CFTR viability 10 ug/mL	others
CCC(C)(CNc1nn2cc(C(C)(C)C)nc2s1)N1CCOCC1 (stereo unspecified)	i	1.06	99.0
COCc1cc(NS(=O)(=O)c2cc([N+](=O)[O-])ccc2OC)cc2c1OCOC2	i	0.97	87.0
O=C(COc1ccc2ccc(=O)oc2c1)c1cccc(Br)c1	i	1.07	93.0
C=CCNC(=O)CS(=O)(=O)Cc1cccs1	i	0.95	100.0
CCN(Cc1ccc2c(c1)OCCO2)S(=O)(=O)c1ccc(Br)cc1Cl	i	0.81	79.0
O=C(CSc1nc2sc3c(c2c(=O)n1CC1CCCO1)CCCC3)N1CCCCC1 (stereo unspecified)	i	0.95	85.0
CC(C)n1nnnc1SCc1ccc([N+](=O)[O-])cc1	i	0.94	91.0
CC(C)CSc1n[nH]c2nc3ccccc3n12	i	0.93	83.0
O=C1C(=O)N(Cc2ccc(Br)cc2)C(=O)N1CCc1cccs1	i	1.03	91.0
CC1CN(Cn2nc(-c3ccc(F)cc3)n(C)c2=S)CCO1 (stereo unspecified)	i	1.08	93.0
CC(C)C[C@H](NC(=O)[C@@H](Cc1c[nH]c2ccccc12)NC(=O)[C@H](Cc1ccc(O)cc1)NC(=O)[C@H](CO)NC(=O)[C@H](Cc1c[nH]c2ccccc12)NC(=O)[C@H](Cc1cnc[nH]1)NC(=O)[C@@H]1CCC(=O)N1)C(=O)N[C@@H](CCCN=C(N)N)C(=O)N1CCC[C@H]1C(=O)NCC(N)=O	i	.	.	total CFTR fold 25 µM=1;total CFTR viability 25 µM=81.0
CN(C)c1nc2sc(C(=O)N3CCN(C(=O)OC(C)(C)C)CC3)cc2s1	i	1.2	95.0
Fc1ccccc1CNCCCSc1ccccc1	i	0.96	114.0
N#CCSc1nc2sc3c(c2c(=O)n1CC1CCCO1)CCCC3 (stereo unspecified)	i	0.94	96.0
CCN(CC)CCOC(=O)C1(C2CCCCC2)CCCCC1	i	.	.	total CFTR fold 25 µM=1.09;total CFTR viability 25 µM=84.0
CC(C)OCCCNc1c([N+](=O)[O-])cnc2ccc(Br)cc12	i	0.75	80.0
CN(C)S(=O)(=O)N1CCN(C(=O)Cc2coc3cc4c(cc23)CCC4)CC1	i	0.99	94.0
Cc1nc(C#N)c(N2CCN(C(=O)Cn3cnc4c3c(=O)n(C)c(=O)n4C)CC2)o1	i	0.97	88.0
Cc1nc2c(cc(OCC(=O)O)c3ccsc32)s1	i	0.99	92.0
O=[N+]([O-])c1ccc(Sc2ccccc2Cl)c(S(=O)(=O)N2CCOCC2)c1	i	0.88	85.0
CCc1sc(C(=O)N2CCN(S(=O)(=O)c3sc(C(=O)O)c(C)c3C(=O)O)CC2)cc1C	i	1.02	114.0
CC(C)CN1CCOC(CNC(=O)C23CC4CC(CC(C4)C2)C3)C1 (stereo unspecified)	i	1.1	94.0
O=C1NC(=O)C(c2ccccc2OC(F)(F)F)N1 (stereo unspecified)	i	1.2	101.0
CC(CO)NC(=O)Nc1ccc(I)cc1Cl (stereo unspecified)	i	0.94	99.0
CCCCCCCCNC(C)C(O)c1ccc(SC(C)C)cc1 (stereo unspecified)	i	.	.	total CFTR fold 25 µM=0.57;total CFTR viability 25 µM=3.0
O=C(Cn1nc2n(c1=O)CCCCC2)Nc1sc2c(c1C(=O)NCC1CCCO1)CCCC2 (stereo unspecified)	i	0.99	100.0
CC1(CCc2ccc(OC(F)F)cc2)NC(=O)N(CN2CCOCC2)C1=O (stereo unspecified)	i	1	101.0
CCOC(=O)c1c(C)[nH]c(C(=O)CSc2nnc(-c3ccco3)n2C(C)C2CC3CCC2C3)c1C (stereo unspecified)	i	1.04	88.0
CC1CCCN(S(=O)(=O)NCC(c2ccccc2Cl)c2c[nH]c3ccccc23)C1 (stereo unspecified)	i	1.04	102.0
C=CCNC(=O)Nc1cccc(I)c1	i	0.99	84.0

Already shown: entries from further up.
SMILES	total CFTR	total CFTR fold 10 ug/mL	total CFTR viability 10 ug/mL	others
CCOC(=O)c1c(C)[nH]c(C(=O)CSc2nnc(-c3ccco3)n2C(C)C2CC3CCC2C3)c1C (stereo unspecified)	i	1.04	88.0
CC1CCCN(S(=O)(=O)NCC(c2ccccc2Cl)c2c[nH]c3ccccc23)C1 (stereo unspecified)	i	1.04	102.0
C=CCNC(=O)Nc1cccc(I)c1	i	0.99	84.0

Additional structures follow.
SMILES	total CFTR	total CFTR fold 10 ug/mL	total CFTR viability 10 ug/mL	others
Cc1ccc(-c2nc3cc4c(cc3[nH]2)OCCO4)c(C)c1	i	0.93	76.0
O=C(CN1CCOCC1)NC(=O)NCc1ccco1	i	1.04	110.0
c1ccc(C(c2ccccc2)N2CCN(c3ccccn3)CC2)cc1	i	0.94	86.0
CS(=O)(=O)Cc1ccc(CNCc2cn[nH]c2-c2ccc3c(c2)OCO3)cc1	i	0.85	79.0
CNc1nnc(SCc2nnc(C(C)(C)C)o2)s1	i	1.1	103.0
Cn1cc(/C=C/C(=O)NC2CCCCC2)cn1	i	1.04	101.0
C#CCNC(=O)NCCc1ccc(Cl)cc1	i	1.04	96.0
O=S(=O)(c1cccc(-c2nnc(SCCSc3ccc(Cl)cc3)o2)c1)N1CCOCC1	i	1.02	86.0
C[C@]12CC[C@@H]3c4ccc(O)cc4CC[C@H]3[C@@H]1C[C@@H](O)[C@@H]2O	i	.	.	total CFTR fold 25 µM=0.97;total CFTR viability 25 µM=99.0
